Calb FLC – C. albicans growth inhibition with fluconazole, primary screen, CaCi-2 strain, Alamar Blue fluorescence. AID 1979, 2009. C. albicans CaCi-2 (fluconazole-resistant clinical isolate) + fluconazole, 48 h. hit rate 0.57% among 300,000. growth inhibition, % (test concentration not listed);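 active = most replicates above 75%; inconclusive = exactly half above 75%; inactive = most below 75%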;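 note: all wells also contain fluconazole at 8 µg/ml as a sub-toxic cotreatment; 0% = median of DMSO wells and 100% = median of geldanamycin control wells; wells of about 8 µL received 7.5 nL stock; the first replicate is given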
LANA-H2A inh – blockers of LANA interaction with H2A/H2B – biochemical, FP readout, HTS, primary screen; cell-free LANA-H2A/H2B peptide, fluorescence polarization; inhibition, % (test concentration not listed); hit rate 0.6% among 320,000; AID 2629, 2010; in the data active = inhibition mostly above about 10%, no sharp cut-off; inactive = mostly below about 6.7%;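 note: stock transfer was 7.5 nL into about 10 µL; 0% = median of vehicle wells and 100% = median of positive control wells; one replicate is shown; the record names a cut of 25% in any replicate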
UCH37 DUB inh – inhibitors of human UCH37 deubiquitinase, primary screen, biochemical, Ub-AMC cleavage, fluorescence. Ubiquitin carboxyl-terminal hydrolase isozyme L5 (Homo sapiens), Q9Y5K5. hit rate 0.33% among 330,000. inhibition, % (no concentration beside the values). purified proteasome/UCH37;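 active = mean of two replicates above 20%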;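 note: 0% = compound-free wells with enzyme and 100% = wells lacking proteasome; stock transfer was 100 nL into about 20 µL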
Target sequence (Q9Y5K5 whole entry, looked up): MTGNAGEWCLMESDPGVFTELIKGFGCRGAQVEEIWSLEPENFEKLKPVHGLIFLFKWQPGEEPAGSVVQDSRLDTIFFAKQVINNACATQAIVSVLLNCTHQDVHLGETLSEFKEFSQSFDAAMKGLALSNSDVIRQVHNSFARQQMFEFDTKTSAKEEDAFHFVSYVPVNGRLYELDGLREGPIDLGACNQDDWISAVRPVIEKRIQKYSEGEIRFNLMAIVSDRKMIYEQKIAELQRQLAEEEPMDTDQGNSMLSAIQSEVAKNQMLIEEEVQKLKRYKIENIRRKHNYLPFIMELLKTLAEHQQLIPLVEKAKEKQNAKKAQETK
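Material: human UCH37 enzyme supplied as purified proteasome complex. Measure: % inhibition of Ub-AMC cleavage fluorescence. Medium: pH 7.4 Tris-HCl (50 mM) with ovalbumin, ATP-MgCl2, DTT. Times: 30 min preincubation with enzyme, 25 min cleavage at room temperature. Detection: AMC fluorescence intensity at 355/460 nm.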
Beta cell apopt – inhibitors of cytokine-induced beta cell apoptosis, primary screen, luminescence; hit rate 0.8% among 300,000; protection from apoptosis, % (concentration not given with the values); INS-1E cytokine-induced death, ATP luminescence, 48 h; percent of positive-control rescue, neutral wells zero; AID 435005, 2010;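 active = all replicates at 75% or more, or half of them and the mean; inconclusive = half reach 75% but not the mean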;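 note: 0% = cytokine-treated negative control wells and 100% = positive control rescue; higher means more ATP so stronger rescue from cytokine killing; wells of about 40 µL received 100 nL stock; the first replicate is given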
T cruzi repl – inhibitors of intracellular T. cruzi growth, primary screen, luminescence, NIH3T3 host cells; T. cruzi beta-gal in NIH3T3, 90 h; inhibition, % (test concentration not listed); hit rate 1.4% among 300,000; AID 1885, 2009;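 active = mean inhibition across valid replicates above about 55%, limit read from the data; inconclusive = mean below that limit but half or more replicates reach it; inactive = mean below it, under half of replicates reach it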;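 note: signal also drops with host cell toxicity which is not excluded here; 0% = plate median of DMSO wells and 100% = zero luminescence signal; higher percent means less beta-gal luminescence so fewer parasites; stock transfer was 50 nL into about 50 µL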
Beta2AR agonist – beta2AR agonists driving receptor internalization, primary screen, cell-based, FAP fluorogen, flow cytometry; Beta-2 adrenergic receptor (Homo sapiens), P07550; Am2.2-beta2AR cells; reference of the scale not given here; hit rate 0.43% among 340,000; response, % (no concentration beside the values);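 active = response above a set limit, near 3 SD of response in nonfluorescent compounds, cut at about 42% in these data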;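 note: stock transfer was 100 nL into about 11 µL; a reference agonist was the positive control; negative values mostly stem from fluorescent compounds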
Target sequence (P07550 whole entry, looked up): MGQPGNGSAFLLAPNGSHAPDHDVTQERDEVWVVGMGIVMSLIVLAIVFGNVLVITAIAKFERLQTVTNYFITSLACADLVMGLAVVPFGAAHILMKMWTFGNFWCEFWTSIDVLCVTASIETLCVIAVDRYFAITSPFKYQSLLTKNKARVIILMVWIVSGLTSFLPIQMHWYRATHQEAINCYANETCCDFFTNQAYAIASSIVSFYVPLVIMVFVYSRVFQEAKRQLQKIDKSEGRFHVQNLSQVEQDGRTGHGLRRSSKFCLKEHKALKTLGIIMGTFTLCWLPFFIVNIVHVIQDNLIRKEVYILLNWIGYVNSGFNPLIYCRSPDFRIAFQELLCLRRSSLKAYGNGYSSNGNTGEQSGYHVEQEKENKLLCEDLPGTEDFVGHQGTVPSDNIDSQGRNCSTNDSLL
Bfl-1 A1 inh – caspase 3/7 activation in MEF A1-2A-BIM cells, primary screen, A1 inhibitor project, cell-based, luminescence, HTS | Caspase-Glo 3/7 luminescence, 3 h; percent of clofoctol response, vehicle zero | caspase activation, % (concentration not given with the values) | hit rate 0.066% among 330,000 | AID 2462, 2010;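 active = over half of replicate activation scores above 10%, or exactly half above 10 with the replicate mean above 10; inconclusive = replicate mean below 10 yet half the replicates above 10; inactive = over half of replicates below 10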;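 note: wells of about 30 µL received 50 nL stock; many hits fall short of the cut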
RanGTP-Imp inh – inhibitors of RanGTP-importin-beta interaction, primary screen, biochemical, FRET, CFP-Ran, YFP-importin-beta, homogeneous; cell-free CFP-Ran/YFP-importin-beta FRET ratio; inhibition, % (test concentration not listed); hit rate 1.1% among 300,000;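 active = most replicates above 15%; inconclusive = exactly half above 15%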;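 note: 0% = DMSO wells and 100% = Ran loaded with GDP instead of GTP; wells of about 40 µL received 100 nL stock; the first replicate is given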
* hit, by the source's call; i = inactive; ? = inconclusive; · = not tested or not shown.

SMILES	Calb FLC	LANA-H2A inh	UCH37 DUB inh	Beta cell apopt	T cruzi repl	Beta2AR agonist	Bfl-1 A1 inh	RanGTP-Imp inh
CCCn1c(=O)c2sccc2n2c(CCCC(=O)NCc3ccco3)nnc12	-4	3.4	3.7	-4	-16	-8	-0.4	-0.3
Cc1cc(Nc2n[nH]c(N)c2C#N)ccc1F	7	1.2	-0.4	2	-3	-3	-0.1	1.9
CSc1cccc(NC(=O)CSc2nnc(C)s2)c1	25	-0.8	1.8	-4	-7	7	-0.4	7.7
O=[N+]([O-])c1ccc2oc(-c3cccc(O)c3)nc2c1	-12	1.8	1.5	-3	-23	-1	-6.9	-0.6
O=C(COc1ccc(/C=N/NS(=O)(=O)c2ccccc2)cc1)NCc1ccccc1	-10	3.2	·	-14	-1	1	-0.2	0.3
NNC(=O)c1ccc(NS(=O)(=O)c2ccc(Br)cc2)cc1	9	-0.1	·	-6	-4	·	0.4	3.7
Nc1nc(Nc2cccc3ccccc23)nc(C2CCCC2=O)n1 (configuration not stated)	-1	-4.9	·	5	5	·	-0.8	-0.1
COc1nc(Nc2cccc(C(F)(F)F)c2)nc(OC)n1	0	-1.4	3.6	-5	10	-3	-2.0	-5.4
O=C(NC1CCCC1)c1ccc2c(c1)N(Cc1ccc(F)cc1)CCS2	-1	-0.6	-214	11	19	2	-1.3	0.1
Cc1ccc(S(=O)(=O)N/N=C2\C(=O)C3(C)CCC2C3(C)C)cc1 (configuration not stated)	-10	0.3	·	-10	-14	0	1.5	-3.9
COc1cc2c3nnc(-c4ccc(F)cc4)c-3cn(Cc3ccc(C)cc3)c2cc1OC	-3	-3.3	-22	8	-4	-309	0.2	-118
O=C(NC12CC3CC(CC(C3)C1)C2)N1CCN(C(=O)C2CCCO2)CC1 (configuration not stated)	-13	-2.7	-2.2	-5	-11	-1	1.1	4.7
O=C(NCc1cccs1)C1CCCN1C(=O)Nc1ccc(Cl)cc1 (configuration not stated)	-2	-1.7	-0.7	1	-8	·	0.9	-1.8
O=C(O)c1ccc(Sc2ccccn2)c([N+](=O)[O-])c1	0	-7.0	2.3	-4	6	-4	-0.3	0.2
COc1cc([N+](=O)[O-])ccc1NC(=O)N1CCCCCC1	-2	-1.2	8.3	-2	-3	2	0.8	-2.3
CCN(CC(=O)NCc1cccs1)C(=O)C(c1ccccc1)c1ccccc1	22	7.9	5.2	-4	14	-1	0.5	0.5
Cc1nnc(N2C(=O)C(O)=C(C(=O)c3ccco3)C2c2cccc([N+](=O)[O-])c2)s1 (configuration not stated)	38	-2.9	13	-6	7	-3	-1.1	-1.0
O=C(c1ccc2nc(N3CCOCC3)sc2c1)N1CCN(c2ccc(Cl)cc2)CC1	9	3.2	3.6	0	2	-5	-0.3	0.6
O=C(COC(=O)c1ccc(S(=O)(=O)Nc2ccccc2)cc1)NCCN1C(=O)CSC1=O	-7	2.7	3.4	2	-10	0	-0.3	-1.8
Cc1ccc(N(C)S(=O)(=O)c2cccc(C(=O)NCC(c3cccs3)N3CCOCC3)c2)cc1 (configuration not stated)	-12	1.4	3.2	-2	2	1	-0.4	1.7
Cc1cccc(-c2noc(CCC(=O)NC3CCCCC3)n2)c1	-20	1.7	1.7	0	1	-11	-0.2	-2.9
CC(=O)NC(C(=O)c1ccccc1)C(=O)c1ccccc1	21	-0.1	4.2	-6	3	-2	-1.1	-4.1
COc1cc2c(cc1NC(=O)c1cccc([N+](=O)[O-])c1)oc1ccccc12	-7	1.4	5.3	17	-7	7	1.4	-2.1
Cc1ccc(Cl)cc1Nc1nc(-c2cccnc2)cs1	3	-2.4	3.7	·	22	-16	-0.7	1.0
O=C(c1cc2cc(Cl)ccc2[nH]1)N1CCN(c2ccc(F)cc2)CC1	-7	5.4	4.0	·	5	7	-0.1	-1.8
CC(C)(C)N(Cc1ccccc1)C(=O)c1ccc(Cl)cc1[N+](=O)[O-]	2	-3.3	0.7	10	-3	4	-0.1	0.6
Cc1nnc(N(CCC#N)CCC#N)s1	2	7.1	0.1	-2	-6	28	0.7	2.2
O=C(CSc1cccc2cccnc12)N/N=C/c1ccc(F)cc1	-3	0.0	·	0	-35	-1	-0.9	7.0
Cc1ccc(C(=O)Nc2cccc(C(=O)NCc3ccco3)c2)cc1	-2	-3.2	1.4	-8	23	-6	-1.9	-2.4
COc1ccc2nc(-c3ccccc3)[nH]c2c1	-2	1.4	-143	12	-14	-4	-8.2	-3.1
CN/S(=N/S(=O)(=O)c1ccccc1)c1ccc(C)cc1 (configuration not stated)	-15	-3.2	·	4	-4	-9	0.8	3.7
CCOC(=O)Cc1nnc(Nc2cc(C)ccc2C)c2ccccc12	9	-3.6	3.1	-6	-25	8	0.7	1.5
C=CCn1c(SCCOc2ccc(OC)cc2)nnc1C(NC(=O)c1ccc(OC)cc1)C(C)C (configuration not stated)	-9	-9.9	5.0	3	5	1	0.5	-2.9
COc1ccc(Cl)cc1NC(=O)C/C(C)=N/NC(=O)Cc1ccccc1	-7	2.4	·	2	5	-4	1.4	3.3
COc1ccccc1CC(=O)NN1C(=O)c2ccccc2C1=O	28	-0.4	3.9	3	-15	5	0.8	3.8
CCCCC(=O)Nc1cccc(-c2nn3c(C)nnc3s2)c1	33	1.4	3.2	0	-3	-4	1.1	-1.4
CCN(Cc1ccccc1)C(=O)COC(=O)CNS(=O)(=O)c1ccc(C)cc1	10	4.3	2.1	0	-21	-9	0.0	-0.7
Cc1cccc(OCCSc2nc3ccccc3n2CCC(=O)O)c1	-13	1.3	2.2	-4	-3	4	1.5	-0.7
O=C(CN(C(=O)c1ccc(Cl)cc1)C1CCCCC1)Nc1ccc(Cl)c([N+](=O)[O-])c1	-1	-0.6	3.2	34	42	-4	-0.6	-5.3
CC1CCCCC1NC(=O)CCS(=O)(=O)c1ccc2c(c1)NC(=O)CO2 (configuration not stated)	-1	-1.9	5.3	-2	-5	-1	-0.8	3.4
O=c1cc[nH]c2cc(Cl)ccc12	5	4.3	9.3	-6	-23	-4	1.2	-0.6
COc1cc(C(=O)N(Cc2cc3ccccc3[nH]c2=O)CC2CCCO2)cc(OC)c1OC (configuration not stated)	-7	0.4	-0.1	-1	3	-4	-0.3	2.3
Cc1cc(C)cc(C(=O)N(CCc2ccccc2)C2CC3CCC(C2)N3C)c1 (configuration not stated)	-3	0.6	1.4	-2	3	-4	-0.3	1.1
COc1ccc(C2/C(=C(/O)c3ccccc3)C(=O)C(=O)N2c2ncccn2)cc1OC (configuration not stated)	4	2.6	7.1	-10	-7	-2	0.3	0.5
CCOC(=O)COc1cccc(C2NC(=O)c3ccccc3O2)c1 (configuration not stated)	1	-4.7	0.7	-7	-15	27	0.8	1.7
COc1ccc(S(=O)(=O)NC(C)C(=O)Nc2cccc([N+](=O)[O-])c2)cc1 (configuration not stated)	-7	0.5	0.5	-3	-15	1	0.0	-3.9
COc1cc2c(cc1OC)C(c1cccs1)NCC2 (configuration not stated)	-1	-0.3	0.2	·	12	-1	-0.1	-0.6
COc1ccc(-c2nc(-c3ccccc3)[nH]c(=O)c2C#N)cc1	-5	-5.2	-233	3	8	10	-0.8	1.8
O=C(NNC(=O)c1ccccc1-n1cccc1)c1cccc(Cl)c1	18	4.7	2.7	-2	-20	13	0.0	4.1
Cc1cc(C)n(C(=O)c2ccc(S(=O)(=O)N3CCOCC3)cc2)n1	-9	6.2	2.4	3	-1	6	0.1	-1.5
CCc1ccc(OCC(=O)N2CCN(c3ccccn3)CC2)c(Br)c1	15	1.0	0.8	-8	-7	-20	-0.3	-0.1
Cc1cc(C)nc(NS(=O)(=O)c2ccc(N3C(=O)C4C5C=CC(C5)C4C3=O)cc2)n1 (configuration not stated)	-2	-1.8	1.9	8	2	-5	0.2	-1.6
Cc1onc(-c2ccccc2)c1C(=O)N/N=C/c1cc(Br)c(Br)o1	-16	0.8	·	1	15	-9	0.3	1.1
CC(C)COc1nc2ccccc2nc1C(C#N)C(=O)NC1CCCCC1 (configuration not stated)	0	-3.6	2.8	4	3	4	0.8	3.3
CC(C)(C)c1csc(NNC(=O)c2ccc(Br)cc2)n1	-16	2.1	-0.9	18	42	4	0.1	1.3
Cc1ccccc1C(=O)NC1CCN(Cc2nnnn2Cc2ccc(F)cc2)CC1	5	2.0	4.5	4	-8	-12	0.6	8.9
CC1(C)CC(=O)C=C(Nc2cc(-c3ccccc3)[nH]n2)C1	-17	-1.8	0.5	5	11	-30	-0.5	?
Cc1nc(-c2cccc(S(=O)(=O)N3CCCC(C)C3)c2)cs1 (configuration not stated)	56	-2.6	-0.1	6	2	6	1.4	-0.8
CCC(Cc1ccccc1)NS(=O)(=O)c1c(C)nc2sccn2c1=O (configuration not stated)	-6	0.9	-9.9	-1	1	-6	·	-3.0
O=C1CC(c2ccco2)CC(O)=C1C=NCCN1CCN(C(=S)Nc2ccccc2)CC1 (configuration not stated)	3	-1.1	1.7	-2	-3	-3	1.0	-3.2

Following part:
SMILES	Calb FLC	LANA-H2A inh	UCH37 DUB inh	Beta cell apopt	T cruzi repl	Beta2AR agonist	Bfl-1 A1 inh	RanGTP-Imp inh
O=C(CC1Sc2ccccc2NC1=O)Nc1cccc(C(=O)O)c1 (configuration not stated)	4	1.9	4.8	-8	-11	1	0.3	?
COc1cccc(-c2onc3ccc(C4(C)OCCO4)cc23)c1	29	-1.8	0.6	-2	7	7	0.0	4.2
Cc1ccc(NC(=O)Cn2nc(C)c(S(=O)(=O)N(C)C)c2C)cc1	-11	4.3	1.0	2	-13	1	-0.1	5.7
CCC(=O)c1ccc(OCC(=O)N2CCN(c3ncccn3)CC2)cc1	-4	1.0	1.1	1	-1	-6	1.0	1.7
CC(C#N)(NC(=O)COC(=O)c1ccccc1NCCO)C1CC1 (configuration not stated)	0	2.2	i	1	-6	-7	-0.4	4.0
CCOC(=O)c1ccc(NC(=O)CN(Cc2ccc(Cl)cc2)S(C)(=O)=O)cc1	11	-5.5	1.3	-2	20	0	-0.6	-3.7
Cc1[nH]c2ccccc2c1C(=O)/C=C/c1ccccc1Cl	3	-9.1	1.9	·	14	-4	-1.7	-1.7
N/C(=N\c1nc2c(c(=O)[nH]1)CCCC2)Nc1ccccc1	4	-14	1.2	5	0	-6	-0.2	2.2
CC1(C)CC2CC(C)(CN2C(=O)CCCN2C(=O)c3ccccc3C2=O)C1 (configuration not stated)	6	4.2	-3.6	-2	3	-5	0.1	7.7
O=C(Nc1ccc(SC(F)F)cc1)C12CCC(CC1)C2	-16	3.6	-1.8	4	18	3	0.2	1.6
COc1ccc(C(Nc2ccccn2)c2oc(CO)cc(=O)c2O)cc1 (configuration not stated)	19	-6.0	4.7	-5	-11	-5	0.0	-1.8
